# Source: PubChem BioAssay (National Center for Advancing Translational Sciences (NCATS))
# EPAC2 antag: validation of human EPAC2 antagonists; EPAC2 Rap1B BODIPY-GDP exchange, fluorescence; actives 1.7% (n = 16,000); Q8WZA2; Potency, µM (highest dose often 112 µM), for the others: at the top dose activity, negative = inhibition, hits mostly inhibitors; AID 1645886; active = well fitted inhibition curve with a large enough effect; inconclusive = small, poorly fitted or top-dose-only effect; inactive = no such curve, though single readings can be large or run the other way;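 also: 100% = activation by cAMP agonist control; nearly all actives have a fitted effect of over 40% in size; the record reuses the description of the EPAC1 agonist screen; inactives centre near -10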
# Target sequence (Q8WZA2 whole entry, looked up): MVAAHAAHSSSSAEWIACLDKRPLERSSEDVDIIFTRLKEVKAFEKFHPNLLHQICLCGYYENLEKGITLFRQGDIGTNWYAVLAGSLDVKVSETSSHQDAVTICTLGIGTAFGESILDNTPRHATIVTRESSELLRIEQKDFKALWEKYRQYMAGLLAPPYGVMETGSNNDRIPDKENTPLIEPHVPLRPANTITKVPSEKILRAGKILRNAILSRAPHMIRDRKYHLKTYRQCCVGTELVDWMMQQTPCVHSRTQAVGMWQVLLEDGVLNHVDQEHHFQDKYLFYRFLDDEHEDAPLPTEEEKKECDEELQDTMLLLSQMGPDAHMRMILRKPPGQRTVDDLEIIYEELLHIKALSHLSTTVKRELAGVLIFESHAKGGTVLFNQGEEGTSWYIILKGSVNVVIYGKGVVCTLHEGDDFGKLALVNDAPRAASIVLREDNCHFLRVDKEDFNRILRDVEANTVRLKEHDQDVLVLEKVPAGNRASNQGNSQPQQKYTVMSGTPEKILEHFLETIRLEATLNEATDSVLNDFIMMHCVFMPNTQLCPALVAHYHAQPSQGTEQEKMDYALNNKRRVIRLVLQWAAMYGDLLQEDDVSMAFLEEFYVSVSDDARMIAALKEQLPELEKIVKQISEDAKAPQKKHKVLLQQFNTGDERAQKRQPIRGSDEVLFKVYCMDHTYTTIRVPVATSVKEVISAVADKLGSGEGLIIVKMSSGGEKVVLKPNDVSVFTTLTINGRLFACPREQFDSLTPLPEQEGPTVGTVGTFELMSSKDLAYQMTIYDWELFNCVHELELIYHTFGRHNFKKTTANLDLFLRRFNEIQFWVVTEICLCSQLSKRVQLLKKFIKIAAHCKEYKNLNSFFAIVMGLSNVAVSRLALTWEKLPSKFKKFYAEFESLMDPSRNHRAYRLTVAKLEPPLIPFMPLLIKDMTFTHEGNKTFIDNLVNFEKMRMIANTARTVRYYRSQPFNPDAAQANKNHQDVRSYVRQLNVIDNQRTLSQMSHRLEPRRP
#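 Normalized against a 6.5 mM cAMP agonist control, compounds were tested on 100 nM EPAC2 exchanging Rap1B-bound BODIPY-GDP (250 nM) for 50 uM GDP. Fluorescence drop (ex 480, em 540 nm) was tracked at room temperature over 30 min at 5-min intervals.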
# * = called active by the depositor; ? = inconclusive; & = joins results of further samples; [ ] = another dose, or the depositor's remark. Potency is read from the fitted curve at half-maximal effect.
Molecule	EPAC2 antag
Cc1cccc(CNc2cc(-c3ccc(N(C)C)cc3)ncn2)c1	-6%
CC(=O)c1ccc(-c2cc(F)cc3c2OC(CNC(=O)c2ccc[n+]([O-])c2)C3)s1 (stereo unspecified)	-5%
O=c1c(-c2ccc(F)cc2)nc2cnc(N3CCOCC3)nc2n1Cc1cccs1	-23%
C=C[C@](C)(O)CCC=C(C)C	-4%
CC(=O)N1CCC2(CC1)CCN(c1ccccc1)CC2	-16%
O=C(NCCN1Cc2ccccc2OC(c2ccccc2F)C1)c1cncs1 (stereo unspecified)	-20%
COc1ccccc1CCn1c(=O)c(-c2cn(C)c3ccccc23)nc2cncnc21	-31%
COc1cccc(C(=O)NCC2Cc3c(F)ccc(-c4ncccn4)c3O2)c1OC (stereo unspecified)	-8%
CCCCCCCCCCCCCCCC(=O)N[C@H](CN1CCOCC1)[C@H](O)c1ccccc1	-19%[11.4 µM]
C[C@@H](C(=O)O)c1ccc(-c2ccccc2)c(F)c1	-20%
C[C@]12C=CC(=O)C=C1CC[C@@H]1[C@@H]2C(=O)C[C@@]2(C)[C@H]1CC[C@]2(O)C(=O)CO	-9%
Nc1c(CC(=O)O)cccc1C(=O)c1ccc(Br)cc1	-28%
Cc1cc2c(c(-c3ccc(Cl)cc3)c1)OC(CNC(=O)Cc1c(C)noc1C)C2 (stereo unspecified)	-40%
N#Cc1ccc(CN2CC3(CCN(C(=O)c4cccc(F)c4)CC3)C2)cc1	-27%
COc1cc(OC)c(OC)cc1CN1CCCC(n2cc(C(=O)N3CCCCC3)nn2)C1 (stereo unspecified)	12%
CCCCCCCCCCCCCCCCCCCCCCO	1%
COc1ncc2nc(-c3cn(C)c4ccccc34)c(=O)n(-c3ccccc3)c2n1	-14%
Fc1ccc(C(c2ccc(F)cc2)N2CCN(C/C=C/c3ccccc3)CC2)cc1	?
COc1cccc(CN2CCOc3ccc(C(O)c4cccnc4)cc3C2)c1 (stereo unspecified)	-8%
O=C([C@@H]1C[C@@H](Sc2nc3ccccc3[nH]2)CN1Cc1c(F)cccc1F)N1CCOCC1	-27%
COc1cc(-c2ccc(C)cc2)cc2c1OCCN(C(=O)CCn1ccc(C)n1)C2	?
COc1ccccc1CNc1cc(-c2ccccc2CN(C)C)ncn1	-10%
Cc1noc(C)c1-c1cc(Nc2ccccc2)ncn1	-12%
CC(C)NC(=O)N1CCC2(CC1)CCN(C(=O)c1csnn1)CC2	-17%
COC(=O)CC1C(C)(C)C(OC(C)=O)C2CC3C4CC(=O)OC(c5ccoc5)[C@]4(C)CCC3[C@@]1(C)C2=O (stereo partly specified)	-16%
Cc1c(CCO)sc[n+]1CCc1ccccc1	?
O=C(O)C1CCN(c2ncnc3ccc(-c4ccccc4C(F)(F)F)cc23)CC1	-5%
CCCCNC(=O)[C@@H]1CC=C[C@@H]2CCN(Cc3ccc(OC)c(OC)c3)C(=O)[C@@H]21	-17%
CCOC(=O)N1CCN(Cc2ccc3c(c2)CN(C(=O)c2noc4c2CCCC4)CCO3)CC1	17%
COc1ccc(-c2oc3ccccc3c(=O)c2O)cc1OC	-10%

# Gathered by group: the entries above containing a thiophene ring, fused or not
Molecule	EPAC2 antag
CC(=O)c1ccc(-c2cc(F)cc3c2OC(CNC(=O)c2ccc[n+]([O-])c2)C3)s1 (stereo unspecified)	-5%
O=c1c(-c2ccc(F)cc2)nc2cnc(N3CCOCC3)nc2n1Cc1cccs1	-23%

# Later entries:
Molecule	EPAC2 antag
COc1ccc(-c2nc3cnc(N4CCOCC4)nc3n(-c3ccccc3)c2=O)cc1	6%
N[C@@H]1CCN(O)C1=O	-14%
COC(=O)[C@H]1[C@H]2C[C@@H]3c4[nH]c5ccccc5c4CCN3C[C@H]2C[C@@H](OC(=O)c2cc(OC)c(OC)c(OC)c2)[C@@H]1OC	?
Cc1ncc([N+](=O)[O-])n1CC(O)CCl (stereo unspecified)	15%[56.6 µM]
COc1ccc(F)c(CN2CCOc3ccc(CN4CCCCC4CO)cc3C2)c1 (stereo unspecified)	?
Cn1cnnc1Sc1ccc(CN2CCOc3ccc(C4=Cc5ccccc5CC4)cc3C2)o1	?
Cc1cc(O)c2ccccc2c1O	-16%
O=C(NCC1Cc2cc(F)cc(-c3cnccn3)c2O1)c1cccc(Cl)c1 (stereo unspecified)	-36%
CC(=O)O[C@@]1(C(C)=O)CCC2C3C=C(Cl)C4=CC(=O)CC[C@]4(C)C3CC[C@]21C (stereo partly specified)	-16%
COc1ccccc1C1OC(=O)CC1C(=O)OC[C@@H]1CCCN2CCCCC12 (stereo partly specified)	20%
Cc1cnc(CNc2nc(-c3ccccc3C)nc3ccccc23)cn1	-26%
CCn1c(-c2ccccc2F)nc2cc(NC(C)=O)cc(C(=O)N(C)Cc3ccccn3)c21	-8%
Cc1noc(C)c1-c1nc(N2CCNCC2)c2ccccc2n1	-9%
COc1cc2c(cc1OC)-c1c(OC)c(OC)cc3ccnc(c13)C2=O	-12%
COc1c(OC)c2occc2c2oc(=O)ccc12	?
CC(=O)OC1CC2C(C)(C)C(O)CCC2(C)C2CC[C@]3(C)C(=CC(=O)OC3c3ccoc3)C12C (stereo partly specified)	-17%
c1ccc(Nc2nc(-c3ccoc3)nc3ccccc23)cc1	-23%
C[C@@H]1CCN(C(=O)[C@H](CCCN=C(N)N)NS(=O)(=O)c2cccc3c2NC[C@H](C)C3)[C@@H](C(=O)O)C1	-20%
c1cnc(N2CCN(Cc3ccc4c(c3)OCO4)CC2)nc1	-27%&-11%&-16%
O=S(=O)(c1ccccc1)N1CCC[C@@]2(CCN(Cc3cc(C(F)(F)F)cc(C(F)(F)F)c3)C2)C1	?
CC(C)O	-7%
Cc1cc(C)n(-c2cccc(C(=O)NCC3Cc4cccc(-c5ccccn5)c4O3)c2)n1 (stereo unspecified)	?
O=C(c1ccncc1)N1CCC2(CCN(Cc3cc(C(F)(F)F)cc(C(F)(F)F)c3)CC2)CC1	?
CN(C)c1ccc(C=O)cc1[N+](=O)[O-]	0%
C=CCCCCCCCCCCCC(O)CC(O)COC(C)=O (stereo unspecified) (tested in a mixture with another compound)	?
Cc1nnc(C(=O)NC(C)(C)c2nc(C(=O)NCc3ccc(F)cc3)c(O)c(=O)n2C)o1	13%
CCCCCCCC(=O)OCC(COC(=O)CCCCCCC)OC(=O)CCCCCCC	-5%
COc1ccc(-c2nc3cnc(N(C)C)nc3n(C)c2=O)cc1	7%
CC[C@@H]1[C@H]2CCCC(=O)N3CC[C@@H](C[C@@H]1OC(=O)Nc1ccc4c(c1)OCO4)[C@@H]23	-33%
CCc1nc2cc(C(=O)N3CCC[C@H]3CO)cc(NC(=O)c3ccccc3OC)c2n1C	-18%
COc1ccc2[nH]cc(CCNc3cc(-c4ccc(C(=O)N(C)C)cc4)ncn3)c2c1	-22%
Cc1ccccc1-c1nc(N(C)Cc2ccco2)c2ccccc2n1	?
CCCCc1ccc2nc(NC(=O)OC)[nH]c2c1	-11%[56.6 µM]
COc1ccccc1-c1cc(NCc2cccs2)ncn1	?
O=c1[nH]cc(F)c(=O)[nH]1	-5%&-15%&-13%
c1ccc(-c2ccc(N3CC4(CCNCC4)C3)cc2)cc1	-12%
COc1ccccc1C1CN(CCNC(=O)c2cnsn2)Cc2ccccc2O1 (stereo unspecified)	-21%
CC(C)c1c(C(=O)NC(c2cccnc2)C(F)(F)F)cnn1-c1nccc(-c2cccs2)n1 (stereo unspecified)	?
COc1cccc2c1C(=O)c1c(O)c3c(c(O)c1C2=O)C[C@@](O)(C(=O)CO)C[C@@H]3O[C@H]1C[C@H](N)[C@H](O)[C@H](C)O1	42%&-16%[activator]
OC1CCN(Cc2ccc3c(c2)CN(Cc2ccc(Oc4ncccn4)cc2)CCO3)CC1	-20%
COc1ccccc1CN1CC[C@@]2(CCCN(C(=O)c3ccco3)C2)C1	-16%
CS(=O)(=O)Nc1cccc(-c2nccc(NCc3cccs3)n2)c1	-26%
CC1CC[C@@]23CCC4(C)[C@@]5(C)CCC6C(C)(C)C(=O)CC[C@@]6(C)C5C=C[C@@]4(OC2=O)C3C1C (stereo partly specified)	-9%
COc1cc(=O)n2c(c1C(=O)NC(C)c1ccco1)CCN(CC=C(C)C)CC2 (stereo unspecified)	-6%
CC(C)Oc1ccc2c(=O)c(-c3ccccc3)coc2c1	-14%&-12%
COc1ccc(C(=O)N2CCC3(CCCN(Cc4cc(C(F)(F)F)cc(C(F)(F)F)c4)C3)CC2)cc1	35µM*
N#CCCn1c(=O)c(-c2ccc(Cl)cc2)nc2cnc(Oc3cccc(Cl)c3)nc21	-9%
O=C(c1cccc(F)c1)N1CCC2(CCCN(Cc3nccs3)C2)CC1	-7%
Cc1ccccc1-c1cc(N2CCN(C)CC2)ncn1	-15%
Cc1oc(-c2ccccc2NS(C)(=O)=O)nc1CN(C)Cc1ccc(Cl)cc1	-23%

# Additional structures follow.
Molecule	EPAC2 antag
COc1ccc(CN2CC[C@H]3C=CC[C@@H](C(=O)NCc4cccnc4)[C@H]3C2=O)cc1OC	-9%
CCCN(CCC)CCc1cccc2c1CC(=O)N2	-17%&-15%
Oc1ccc(Cl)c2c1CCC2	-13%
COc1ccc(NC(=O)N2CC3(CCN(C(=O)c4ccco4)CC3)C2)cc1	-28%
CCCCC[C@H]1CN(Cc2ccccc2)C(=O)[C@@H]1CC(=O)NCc1ccccc1	?
Cc1ccc2[nH]cc(C(O)c3c[nH]c4ccc(C)cc34)c2c1	-13%
CCCC(O)C(CC)CO (stereo unspecified)	0%
CC(N)C(=O)OC(C)(C)Cc1ccc(Cl)cc1 (stereo unspecified)	10%&-9%
CCOC(=O)c1ccc(-c2c(-c3ccc4c(c3)OCO4)noc2C)cc1F	-26%
c1ccc(Nc2ncncc2-c2ccc3c(c2)OCO3)cc1	-28%
O=C1CCC[C@@H]2C[C@@]3(C[C@@H]4CCN1[C@H]24)Nc1cc([N+](=O)[O-])ccc1NC3=NCc1ccccc1	-2%
O=C(O[C@H]1[C@H](Cc2ccccc2)NS(=O)(=O)[C@H]2CC3C=C[C@]12O3)c1ccc(Br)cc1	13%
O=c1c(O)c(-c2ccccc2)oc2cccc(O)c12	-4%
COCCn1c(=O)c(CCc2ccccc2)nc2cncnc21	-6%
C=CC(C1=CC(=O)C=CC1=O)c1ccccc1 (stereo unspecified)	?
COCCn1c(=O)c(-c2cccc(C#N)c2)nc2cnc(N3CCNCC3)nc21	-21%
COc1cccc(CN2CCC3(CCC(CNC(=O)c4ccccc4)O3)CC2)c1 (stereo unspecified)	-17%
c1ccc(Nc2nc(-c3cccnc3)nc3ccccc23)cc1	-20%
CN1Cc2c(C(=O)OC(C)(C)C)ncn2-c2ccsc2C1=O	-25%
CC(Oc1ccccc1)C(=O)NCC1Cc2cc(F)cc(-c3ccccn3)c2O1 (stereo unspecified)	-29%
CC(C)NCC(O)c1ccc(NS(C)(=O)=O)cc1 (stereo unspecified)	?
N[C@H](Cc1cnc[nH]1)C(=O)O	-16%&1%
CN1CCN(c2ncc3nc(-c4cccs4)c(=O)n(-c4ccccc4)c3n2)CC1	41%[activator]
COc1ccc2oc(-c3ccc(O)cc3)cc(=O)c2c1	-17%
CC(=O)Oc1c2c(c3c(c1CC=C(C)C)O[C@@]14C(=CC5CC1C(C)(C)OC4(C/C=C(\C)C(=O)O)C5=O)C3=O)OC(C)(CCC=C(C)C)C=C2 (stereo partly specified)	-22%
Cc1noc(C)c1C(=O)N1CCC2(CC1)CCN(c1ncccn1)CC2	-10%
COc1cc(=O)n2c(c1C(=O)NCc1nonc1C)CCN(Cc1c[nH]c3ccccc13)CC2	7%
O=C1CCc2ccc(OCCCCN3CCN(c4cccc(Cl)c4Cl)CC3)cc2N1	-11%
Cc1ccnc2c(N)cccc12	?
O=C(/C=C/c1ccccc1)c1cccs1	-21%
O=C(NCC1CCC2(CCN(Cc3cccc(-c4ccco4)c3)CC2)O1)c1ccccc1 (stereo unspecified)	-16%
O=C(O)C[C@H]1c2ccc(C(F)(F)F)cc2S(=O)(=O)N1Cc1ccccc1	-17%
CC(=O)OCC1=C(C(=O)O)N2C(=O)C(NC(=O)CSc3ccncc3)[C@@H]2SC1 (stereo partly specified)	15%
O=c1cc(-c2ccccc2)oc2cc(O)c(O)cc12	-18%
CC(c1cc2ccccc2s1)N(O)C(N)=O (stereo unspecified)	-24%
COc1ccccc1CCn1c(=O)c(-c2cccc(F)c2)nc2cncnc21	14%
O=c1cc(-c2ccccc2)oc2cccc(O)c12	-17%&-28%
CN1CCCCCC1C(=O)NCC1Cc2cc(-c3cnccn3)ccc2O1 (stereo unspecified)	?
Cc1ccc(C(=O)Nc2cccc(-c3nc(CNC(=O)c4ccc5ccccc5n4)c(C)o3)c2)s1	-1%
COc1ccccc1C(=O)N[C@@H]1c2ccccc2C2(CCN(Cc3ccc(C)o3)CC2)[C@H]1O	-31%
O=c1c(-c2cccc(F)c2)nc2cncnc2n1C1CC1	?
O=C(Cc1ccc[nH]c1=O)c1ccc(F)cc1	0%
CC(CCc1ccc(O)cc1)N1CCOc2c(O)cc(-c3nc4ccccc4s3)cc2C1 (stereo unspecified)	-7%
CN1CCN(CC(=O)N2c3ccccc3C(=O)Nc3cccnc32)CC1	-7%&-5%&4%&-21%

# Reformatted: entries from further up.
SMILES: O=C(Cc1ccc[nH]c1=O)c1ccc(F)cc1
- EPAC2 antag = 0%

SMILES: CC(CCc1ccc(O)cc1)N1CCOc2c(O)cc(-c3nc4ccccc4s3)cc2C1 (stereo unspecified)
- EPAC2 antag = -7%

# Not all compounds are listed (hit frequency here may not be typical).
